CDC25B CDK2 inh: human CDC25B-CDK2/CyclinA binding inhibition. HTRF CDC25B-CDK2/CyclinA binding, anti-His/anti-Flag; active compounds read high. AID 1259370. hit rate 0.72% among 94,000. z-score (test concentration not listed);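 note: score is relative to mean and SD of negative controls; strong numbers were not always called active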
HIV TAR-Tat: HIV-1 TAR-Tat binding disruption | HIV-1 TAR RNA, Tat peptide displacement FRET; active compounds read high | AID 1259389 | z-score (concentration not given with the values) | hit rate 0.6% among 100,000;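 note: score is relative to mean and SD of negative controls; some compounds called inactive have numbers as strong as hits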
* hit, by the source's call; / = not tested or not shown.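 Rule for the calls: active = z-score from 3 up in half or more of its runs; inactive = the rest.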

SMILES	CDC25B CDK2 inh	HIV TAR-Tat
O=C(Nc1cccc(F)c1)N1CCC(n2c(=O)[nH]c3ccccc32)CC1	-2.12	0.87
COC(=O)c1nnn(CC(=O)Nc2ccccc2)c1C(=O)OC	-0.41	/
COC(=O)CSc1nc2sc3c(c2c(=O)n1-c1ccccc1)CCC3	-0.08	0.54
COc1ccc(-c2nc(SCc3cc(=O)n4ccsc4n3)n[nH]2)cc1	/	0.16
CC(C)CC(C(=O)Nc1ccc(Br)cc1F)N1Cc2ccccc2C1=O (configuration not stated)	/	-0.4
COc1cc(C)c(C)cc1S(=O)(=O)Nc1cccc(N2CCCS2(=O)=O)c1	/	1.34
Cn1nc(C(=O)O)c2ccccc2c1=O	0.27	2.07
Cc1ccc(-c2nc3c4c(C)c(C)n(CCN(C)C)c4ncn3n2)cc1	-1.98	0.28
O=C1N(C2CCCCC2)C(=NC2CCCCC2)SC12CC2	-1.93	/
COc1ccccc1NC(=O)N1CCOc2ccccc21	/	1.03
CCCCn1cc(S(=O)(=O)c2ccccc2)c(=O)c2cc(Cl)ccc21	0.73	1.38
O=S(=O)(NC1CCCCC1N1CCN(c2ccccc2F)CC1)c1ccccc1 (configuration not stated)	-1.55	1.7
Fc1ccccc1-n1ncc2c1ncn1nc(COc3ccc(Cl)cc3)nc21	0.33	0.07
CCOC(=O)c1c(NC(=O)c2cc3ccccc3o2)sc2c1CC(C)(C)OC2	-1.27	0.36
COc1cccc(-c2cn3nc(-c4cccs4)sc3n2)c1	-0.74	/
CC(C)Cc1n(CC(=O)c2ccccc2)c2ccccc2[n+]1C	-2.51	-1.26
Cc1cc(C)n(-c2nc3c(c(=O)n2CC(=O)NCc2ccco2)CCCC3)n1	/	2.4
Cn1c(=O)c2c(nc(NCCN3CCOCC3)n2Cc2cccc(F)c2)n(C)c1=O	-1.61	-0.16
COc1cccc(NC(=O)CSc2nc3ccccc3c3nc4ccccc4n23)c1	/	1.18
Cc1ccc(C)c(NC(=O)N2CCN(c3nc4cc(F)ccc4n4cccc34)CC2)c1	-0.43	1.17
OC(COCc1ccccc1)Cn1c2ccccc2c2ccccc21 (configuration not stated)	-0.44	0.29
O=c1c(NCc2ccco2)c(-c2ccccc2)c1=O	/	2.13
O=C(c1cc2c(s1)-c1ccc(Cl)cc1SC2)N1CCC(N2CCCCC2)CC1	-0.39	1.18
O=C(O)c1cc2ccccc2c(=O)[nH]1	/	1.9
Cc1onc(-c2ccccc2)c1N	-2.25	/

An excerpt of the results above:
SMILES	CDC25B CDK2 inh	HIV TAR-Tat
COc1cc(C)c(C)cc1S(=O)(=O)Nc1cccc(N2CCCS2(=O)=O)c1	/	1.34
Cn1nc(C(=O)O)c2ccccc2c1=O	0.27	2.07
Cc1ccc(-c2nc3c4c(C)c(C)n(CCN(C)C)c4ncn3n2)cc1	-1.98	0.28
O=C1N(C2CCCCC2)C(=NC2CCCCC2)SC12CC2	-1.93	/
COc1ccccc1NC(=O)N1CCOc2ccccc21	/	1.03
CCCCn1cc(S(=O)(=O)c2ccccc2)c(=O)c2cc(Cl)ccc21	0.73	1.38
O=S(=O)(NC1CCCCC1N1CCN(c2ccccc2F)CC1)c1ccccc1 (configuration not stated)	-1.55	1.7
Fc1ccccc1-n1ncc2c1ncn1nc(COc3ccc(Cl)cc3)nc21	0.33	0.07
CCOC(=O)c1c(NC(=O)c2cc3ccccc3o2)sc2c1CC(C)(C)OC2	-1.27	0.36
COc1cccc(-c2cn3nc(-c4cccs4)sc3n2)c1	-0.74	/
CC(C)Cc1n(CC(=O)c2ccccc2)c2ccccc2[n+]1C	-2.51	-1.26
Cc1cc(C)n(-c2nc3c(c(=O)n2CC(=O)NCc2ccco2)CCCC3)n1	/	2.4
Cn1c(=O)c2c(nc(NCCN3CCOCC3)n2Cc2cccc(F)c2)n(C)c1=O	-1.61	-0.16
COc1cccc(NC(=O)CSc2nc3ccccc3c3nc4ccccc4n23)c1	/	1.18
Cc1ccc(C)c(NC(=O)N2CCN(c3nc4cc(F)ccc4n4cccc34)CC2)c1	-0.43	1.17
OC(COCc1ccccc1)Cn1c2ccccc2c2ccccc21 (configuration not stated)	-0.44	0.29
O=c1c(NCc2ccco2)c(-c2ccccc2)c1=O	/	2.13

Next compounds follow:
SMILES	CDC25B CDK2 inh	HIV TAR-Tat
Clc1ccc(CCNc2nc3ccccc3c3nc(-c4ccncc4)nn23)cc1	-0.76	2.11
CCOc1cc(C2CC(=O)Nc3c2c(C)nn3-c2ccc3nnc(C)n3n2)ccc1O (configuration not stated)	/	0.4
CC(C)n1c(SCc2ccccc2F)nc2c1c(=O)n(C)c(=O)n2C	-0.31	4.34
Cc1cc(C)cc(N2C(=O)c3nccnc3C2=O)c1	-0.52	0.92
Cc1cccc(C)c1Nc1c(-c2ccc(F)cc2)nc2cnccn12	0.83	/
O=C(CN1N=NC2C(=O)N(c3ccc(F)c(F)c3)C(=O)C21)Nc1cccc(Cl)c1 (configuration not stated)	/	0.5
C#CCN1C(=O)C(O)(CC(=O)c2ccc3c(c2)OCCO3)c2ccccc21 (configuration not stated)	0.16	-0.18
COc1ccc(-c2onc(C)c2C)cc1S(=O)(=O)N1c2ccccc2CC1C (configuration not stated)	/	1.85
N#Cc1c(Cl)cccc1I	-1.57	/
Cc1oc2ncnc(N3CCCCC3)c2c1C(=O)N1CCc2ccccc21	/	-0.05
COC(=O)C1CCN(c2csc3ccc(C)cc3c2=O)CC1	/	0.59
Cn1nnnc1SCCNCc1ccc(F)cc1	-1.03	0.43
CCOc1ccc(-n2c(=S)sc3c(=O)[nH]c(SCC(=O)NC(C)CC)nc32)cc1 (configuration not stated)	-0.76	1.82
COc1ccccc1NC(=O)NC(C)c1c(-n2cccc2)sc(C)c1C (configuration not stated)	-22.2	0.91
O=c1c(NCc2cccs2)nccn1-c1cccc(Cl)c1	/	0.7
c1ccc(C2CC3CCCCC3CO2)cc1 (configuration not stated)	0.06	0.37
COc1ccc(OC)c2[nH]c(=O)c(CCNC(=O)c3ccc(Br)o3)cc12	-1.21	/
Cc1cccc(NS(=O)(=O)c2cc(-c3onc(C)c3C)ccc2C)n1	/	0.87
Cc1cc(NC(=O)N2CCn3cccc3C2C)ccc1Br (configuration not stated)	/	1.25
CC(C)(C)c1ccc(S(=O)(=O)c2c[nH]c3ccccc3c2=O)cc1	-0.4	0.47
O=C(CN1N=C(c2ccccc2)c2ccccc2S1(=O)=O)Nc1ccc2c(c1)OCO2	/	0.61
CCOC(=O)c1cc(-c2ccc(S(=O)(=O)NCC3CCCN3CC)s2)on1 (configuration not stated)	/	0.82
CC(C)n1c(N2CCCCCC2)nc2c1c(=O)[nH]c(=O)n2C	-0.56	/
C/C(=N\NC(=S)NC(C)(C)C)c1sc(-c2ncc(C(F)(F)F)cc2Cl)nc1C	-1.29	/
CN(CC(=O)Nc1nccs1)S(=O)(=O)c1cccc2nsnc12	-1.88	/

Other structures
SMILES	CDC25B CDK2 inh	HIV TAR-Tat
COc1ccc(-n2c(=S)[nH]c3sc4c(c3c2=O)CC(C(C)C)OC4)cc1 (configuration not stated)	-0.43	/
COC(=O)c1ccc(Oc2ccc(C3SCCS3)cc2)o1	-1.31	/
CC(NC(=O)C(=O)N1CCCCC1)C(c1cccs1)N1CCN(C)CC1 (configuration not stated)	-1.18	0.24
Cc1cc(C)cc(Nc2c(-c3ccc(N(C)C)cc3)nc3sccn23)c1	-1.37	-0.25
CCc1cc2c(NCc3ccc(C)cc3)ncnc2s1	/	0.87
Cc1nn(-c2nc3ccccc3o2)c2c1C(c1cccc(F)c1F)CC(=O)N2 (configuration not stated)	/	1.03
O=C(Nc1ccc(F)cc1F)C1CCN(c2ccc(-c3cccs3)nn2)CC1	/	6.79
C/S(=N/S(=O)(=O)c1ccccc1Cl)c1ccc(OC(=O)c2ccc(Cl)cc2)cc1 (configuration not stated)	-0.41	/
O=C(NCCCN1CCCC1=O)C1CCCN(c2ncnc3c2nc2n3CCCCC2)C1 (configuration not stated)	/	-0.33
CCOC(=O)c1oc2ccc(S(=O)(=O)N3CCCC3c3ccnn3CC)cc2c1C (configuration not stated)	-0.22	1.19
O=C(NCc1ccco1)C(=O)NCC(c1ccc2c(c1)OCO2)N1CCOCC1 (configuration not stated)	/	0.22
C=CCn1c(=S)sc2c(C(C#N)C#N)ncnc21	-1.48	/
Cc1nn(CCCC(=O)NCc2cccs2)c(=O)c2cc3occc3n12	1.69	1.68
Cc1ccc(-c2nnc(NCCCO)c3ccccc23)cc1	-0.98	/
O=C(Nc1ncc(Cc2ccc(Cl)cc2)s1)c1cc2ccccc2c(=O)o1	0.32	-0.25
CC1CCCN(C(=O)c2cc3ccc4cccnc4c3[nH]2)C1 (configuration not stated)	/	-0.71
COCCN[C@H]1CS(=O)(=O)C[C@@H]1S(=O)(=O)c1ccc(NC(C)=O)cc1	-1.04	-1.27
Cn1nnnc1SCCNCc1ccccn1	0.09	0.75
COC(=O)c1ccc2c(c1)NC(=O)CS2	-2.18	-0.25
Cc1ccc(-c2nnc(SCc3cc(=O)c4cccc(F)c4[nH]3)n2C)cc1	/	-0.67
CC12CN3CC(C)(CN(C1)C3c1ccc(O)cc1O)C2=O (configuration not stated)	-1.28	2.45
COc1ccc(S(=O)(=O)c2c(C(=O)c3ccccc3)cnc3cc4c(cc23)OCCO4)cc1	2.84	-0.23
CSc1ccc(C2NCCc3c2[nH]c2ccccc32)cc1 (configuration not stated)	-0.7	-0.2
Cc1ccc(/C=C(\C#N)S(=O)(=O)c2c(N)oc(C)c2C)cc1	-1.75	/
CC(=O)Oc1ccc2c(c1)oc(=O)c1ccccc12	-1.42	2.79

(continued)
SMILES	CDC25B CDK2 inh	HIV TAR-Tat
CCN(c1ccccc1)c1nc2ccccc2n2cnnc12	-0.64	1.78
O=C(NC1CC1)C1c2ccccc2C(=O)N2CCc3ccccc3C12 (configuration not stated)	0.01	/
CCc1ccc(N2C(=O)N(c3ccc(C)cc3)C3CS(=O)(=O)CC32)cc1 (configuration not stated)	-1.69	0.9
CCC(C(=O)N1CCc2ccccc21)n1nc(-c2ccc(C)c(C)c2)ccc1=O (configuration not stated)	-0.45	0.78
CCN1C(=O)C2(c3ccccc31)c1c(oc3ccc(C)cc3c1=O)C(=O)N2CCCOC(C)C (configuration not stated)	-2.42	2
Cc1nc(-c2ccc(S(=O)(=O)NCc3cccs3)cc2)co1	/	0.03
Cn1nc(C(=O)N(Cc2ccco2)C2CCCCC2)c2c1-c1ccccc1SC2	-0.49	1.47
O=c1c(S(=O)(=O)c2ccccc2)cn(Cc2ccccc2Cl)c2ccc(F)cc12	-1.65	1.89
CCOC(=O)c1cc(-c2ccnn2C(=O)c2ccc(C(F)(F)F)cc2)on1	0.36	/
CCSc1nc2ccccc2n1CCOc1ccccc1	-0.32	/
O=[N+]([O-])c1ccc(N2CCCN(S(=O)(=O)c3ccc(Cl)cc3)CC2)nc1	-1.38	/
Cc1ccc(CNc2nc3ccc(Cl)cc3n3nnnc23)cc1	-0.36	-0.11
COc1cccc(C2NC(C(=O)O)CS2)c1 (configuration not stated)	-0.68	1.83
Cc1[nH]c(C)c(S(=O)(=O)Nc2ccc(F)cc2F)c1C(=O)N1CCCC1	/	0.79
O=C(CC1(O)C(=O)Nc2ccc(Cl)cc21)c1ccc(Cl)cc1 (configuration not stated)	-0.64	-0.44
COC(=O)c1sc(N2C(=O)c3oc4ccccc4c(=O)c3C2c2ccccc2F)nc1C (configuration not stated)	-2.08	-1.38
Cc1nn2c(=O)cc(CSc3nnc(-c4ccc5c(c4)OCO5)o3)nc2s1	-1.22	0.55
O=C(NCCCN1CCCC1=O)c1cnc2sc(N3CCCC3)nn2c1=O	/	-0.16
O=C(Nc1nc(-c2ccccc2)cs1)C1CC1	-1.27	/
CCOC(=O)CN1C(=O)C2C3c4ccccc4C(c4ccccc43)C2C1=O (configuration not stated)	-2.47	-1.45
CCCNC(=O)c1oc2ccc3c(c2c1C)C(=O)CC(C)(CC)O3 (configuration not stated)	-1.29	0.95
COc1ccccc1-n1nnc(-c2nc(-c3ccccc3Cl)no2)c1N	/	-1.09
CSc1ccc(-c2nc(CSCC(=O)NCc3ccc4c(c3)OCO4)c(C)o2)cc1	-1.9	/
Cc1nn(-c2nc3ccccc3s2)c2c1C(c1cccs1)CC(=O)N2 (configuration not stated)	-4.71	-0.03
COCCN1C(=O)c2oc3ccc(F)cc3c(=O)c2C1c1ccc(SC)cc1 (configuration not stated)	-0.19	0.65

Remaining list, next part
SMILES	CDC25B CDK2 inh	HIV TAR-Tat
COc1ccc(C2CC(=O)C3=C(C2)NC(C)=C(C(=O)OC(C)C)C3c2ccc(F)cc2)cc1OC (configuration not stated)	-1.83	0.25
O=[N+]([O-])c1ccc(Oc2ccc(F)cc2)cc1	-0.99	/
Cc1nn(C(C)C(=O)NCc2ccc3c(c2)OCO3)c(=O)c2c1sc1ccccc12 (configuration not stated)	-2.61	2.45
O=C(O)CCC(=O)OC[C@@H](NC(=O)C(Cl)Cl)[C@H](O)c1ccc([N+](=O)[O-])cc1	/	1.06
COC(=O)CC1Sc2ccccc2NC1=O (configuration not stated)	/	2.09
Cn1c(=O)c2c(-c3ccccc3)n(C3CCCCC3)cc2n(C)c1=O	-1.16	0.4
CC(C)C(=O)Nc1nc(NC(=O)C(C)C)nc(-c2ccccc2C(F)(F)F)n1	-2.42	/
COc1ccccc1NC(=O)CSCc1cc(=O)n2ccsc2n1	/	0.42
C=CCN1C(=O)C2(/C(=C(/O)c3ccc(F)cc3)C(=O)C(=O)N2CCN2CCOCC2)c2ccccc21 (configuration not stated)	0.52	-0.56
Cc1cc(C)nc(NS(=O)(=O)c2ccc(N3C(=O)C4=C(SCCS4)C3=O)cc2)n1	-0.95	/
Cc1c(Cl)ccc2c(=O)c(C(=O)O)c[nH]c12	-1.52	1.26
COc1cc(NS(=O)(=O)c2ccc3c(c2)NC(=O)CC(=O)N3)cc(OC)c1	-1.22	1.3
COc1ccc(OCCSc2nc3ccccc3[nH]2)cc1	-0.52	/
CCOC(=O)c1oc2ccc(S(=O)(=O)Nc3cc4c(cc3C)n(C)c(=O)c(=O)n4C)cc2c1C	/	-0.15
Nc1ccc2oc(-c3ccc(-c4nc5cc(N)ccc5o4)cc3)nc2c1	-2.17	0.68
